Screening results as filed in PubChem BioAssay.
gsp antag: gsp mutant antagonism | gsp-mutant cells, cAMP HTRF, 30 min; control for the full effect not named in the record | Potency, µM (top dose mostly 76.9 µM), for inactives: at the highest dose activity change, negative = inhibition, actives largely listed as inhibitors | 0.4% of 340,000 active; active = falling curve of any shape with a large fitted effect; inconclusive = falling curve, mostly with a smaller effect; inactive = flat or rising curve; cell line not stated here;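 also: intracellular cAMP measured with PDE inhibitor Ro 20-1724 present during compound exposure; potency is read from the fitted curve at half-maximal effect; % is scaled to controls: 0 for no effect and ±100 for the full control effect; nearly all actives have a fitted effect of over 65% in size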
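HTRF cAMP measurement after 30 min RT detection following 30 min, 37C compound treatment alongside […] (added as 300 uM solution) in G418-selected cells seeded at 2000/well and grown 16–24 h.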
Menin-MLL FL inh: displaces fluorescein MLL peptide from human menin; Fluorescence polarization, fluorescein-MLL peptide displacement from menin; FP activity change, % at 61.4 µM; 290,000 tested, under 10 active; AID 1766; inconclusive = falling polarisation curve, or a change in total fluorescence; inactive = total fluorescence flat and polarisation flat or rising; no compound was filed as active; the % refers to the polarisation; negative = inhibition;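 also: % of control where 0% means no effect; inhibitors lower the polarisation; unlabelled MLL peptide was the positive control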
TRPML1 ag: agonists of human TRPML1 channel. Q9GZU1. TRPML1-expressing cells, Ca2+ dye fluorescence, FDSS; host cell line not named in the record; reference of the full effect not given here. activation, % (test concentration not listed). 0.12% of 410,000 active. AID 624414; in the data active = activation above about 50%; inconclusive = about 30% to 50%; inactive = below about 30%; also: 0% is about no effect; the text of the record puts the active cut at 80%
Target sequence (Q9GZU1 whole entry, looked up): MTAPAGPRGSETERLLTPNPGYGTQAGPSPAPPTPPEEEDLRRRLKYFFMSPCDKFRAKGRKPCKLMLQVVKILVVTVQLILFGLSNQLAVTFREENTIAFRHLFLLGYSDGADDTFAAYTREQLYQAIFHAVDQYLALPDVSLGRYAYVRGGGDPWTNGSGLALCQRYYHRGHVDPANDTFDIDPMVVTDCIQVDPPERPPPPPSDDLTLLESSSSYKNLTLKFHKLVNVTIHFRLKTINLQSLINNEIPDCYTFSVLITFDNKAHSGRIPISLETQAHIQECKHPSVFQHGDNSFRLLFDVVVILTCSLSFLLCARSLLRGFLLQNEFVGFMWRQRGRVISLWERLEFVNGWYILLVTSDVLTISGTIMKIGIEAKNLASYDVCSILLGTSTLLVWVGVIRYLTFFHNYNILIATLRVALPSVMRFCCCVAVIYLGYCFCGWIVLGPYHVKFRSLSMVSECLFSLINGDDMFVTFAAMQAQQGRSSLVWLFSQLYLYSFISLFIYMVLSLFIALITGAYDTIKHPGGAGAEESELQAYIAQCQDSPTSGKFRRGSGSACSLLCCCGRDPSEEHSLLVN
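Kinetic FDSS Ca2+ read in Tet-induced TRPML1-DL cells (ABD Ca8 dye plus quencher, 45-90 min RT loading): baseline, then compound, then 110 s agonist window; EC80 agonist 54-4 at 4uM final added afterwards for a 110 s antagonist window.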
ClpP mod: qHTS Assay for Activators of ClpP; 1.9% of 340,000 active; purified B. subtilis ClpP, FRET peptide cleavage, 20 min; Potency, µM (doses to about 57.5 µM), inactives show at the highest dose activity change, negative = active; active = well fitted falling curve with a large enough effect; inconclusive = small, poorly fitted or top-dose-only effect; inactive = no such curve, though single readings can be large or run the other way; also: potency is read from the fitted curve at half-maximal effect; the source files actives as falling curves though it sought activators and does not explain the sign; nearly all actives have a fitted effect of over 65% in size; many hits overshoot -100%
Target sequence (P80244 whole entry, looked up): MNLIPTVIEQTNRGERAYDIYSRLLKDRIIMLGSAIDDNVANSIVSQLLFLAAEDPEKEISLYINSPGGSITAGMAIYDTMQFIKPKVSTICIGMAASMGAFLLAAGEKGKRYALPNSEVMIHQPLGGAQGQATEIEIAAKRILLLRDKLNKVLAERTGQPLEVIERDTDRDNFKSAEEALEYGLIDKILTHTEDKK
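ClpP 10 microg/mL final, pH 8 Tris/KCl buffer with BSA, glycerol, Tween-20; compound pinned in; FRET-FV substrate; RT 20 min; Ex320/Em430; ΔFRET vs ADEP 5.8 microM, DMSO, no enzyme.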
gsp agonist: gsp mutant agonism; gsp mutant cells, cAMP HTRF, 30 min; control for the full effect not named in the record; Potency, µM (doses to about 76.9 µM), without a hit: at the highest dose activation (cAMP increase), hits mostly activators; 0.13% of 340,000 active; AID 624287; active = well fitted activation curve with a large enough effect; inconclusive = small, poorly fitted or top-dose-only effect, or another doubt; inactive = no such curve, though single readings can be large or run the other way; cell line not stated here;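 also: phosphodiesterase inhibitor Ro 20-1724 added with compounds to block cAMP breakdown; potency is read from the fitted curve at half-maximal effect; nearly all actives have a fitted effect of over 60% in size; about a fifth of the inactives were tested at one dose only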
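Cells in DMEM/10% FBS with G418 were pretreated with compounds in DMSO plus […] (300 uM stock) for 30 min at 37C. cAMP was measured by HTRF (cAMP-d2 plus anti-cAMP antibody-K) after 30 min at room temperature.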
TRPML1 blocker: inhibitors of human TRPML1 channel. Q9GZU1. TRPML1-inducible cells, Ca2+ dye fluorescence, FDSS; hits give low values; inhibition of EC80 agonist-evoked calcium signal. activity change, negative = inhibition, % (concentration not given with the values). 0.02% of 390,000 active. AID 624415; in the data active means activity change below about -50%; inconclusive means about -30% to -50%; inactive means above about -30%;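 also: stimulus is agonist 54-4 at its EC80 concentration; % is scaled to controls: 0 for no effect and ±100 for the full control effect; compound concentration not given in the record; the text of the record puts the active cut at -80%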
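Calcium fluorescence in TRPML1-DL cells induced overnight with Tet: a 110 s read after compound pin addition, then a 110 s antagonist read after challenge with 54-4 at 4 uM final (EC80).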
* hit, by the source's call; u = inconclusive; x = not tested or not shown; & = joins results of further samples; [ ] = another dose, or the depositor's remark.

SMILES	gsp antag	Menin-MLL FL inh	TRPML1 ag	ClpP mod	gsp agonist	TRPML1 blocker
C#CCN(C[C@H]1[C@H](OC(=O)NCC2CCCCC2)[C@H](OC(=O)NCC2CCCCC2)C[C@H]2C(=O)N(c3ccccc3)C(=O)[C@@H]12)S(=O)(=O)c1ccc(C)cc1	x	x	0.5	0.5%	0%	38
COc1ccccc1C1Nc2cccc3cccc(c23)N1	-25%	-18	-0.4	u	18%	0
CC(C)CNS(=O)(=O)c1ccc(CCC(=O)NCCc2ccccc2)cc1	2%	6.3	-0.3	x	u	12
CCOC(=O)c1c(C)[nH]c(C)c1C(=O)COC(=O)c1ccc(O)cc1	2%	1.6	0.5	0.5%	6%[15.4 µM]	-15
COc1ccccc1CNc1nc2nc(C)c(Cl)c(=O)n2[nH]1	9%	-0.7	-1.0	-1.4%	-14%	25
CCOC(=O)C1=C(CC)NC2=C(C(=O)CCC2)C1c1ccc(OC)c(OC)c1 (stereo not drawn)	8%	9.5	1.6	-20%	3%	8
CC(NCC(=O)Nc1cc(S(=O)(=O)N2CCOCC2)ccc1N1CCOCC1)c1ccco1 (stereo not drawn)	-1%	x	-0.6	-1.3%	1%	17
CC(=O)Oc1ccc(NC(=O)Cc2ccccc2)c(C(=O)O)c1	2%	-0.5	0.4	x	12%	16
CCCCNc1nc(Oc2ccc(=O)n(-c3ccccc3)n2)nc(N(CC)CC)n1	x	x	3.4	-0.8%	x	9
CC(=O)NCCNC(=O)c1ccc(Sc2ccccc2)c([N+](=O)[O-])c1	4%	1.2	2.1	1.8%	9%	-3
COc1ccc(CC(=O)Nc2c3c(nn2C(C)(C)C)CS(=O)(=O)C3)cc1OC	7%	x	0.0	-0.6%	-10%	-7
CCN(CC)CC(=O)NC1CC(C)(C)Cc2c1cnn2-c1ccc(F)cc1 (stereo not drawn)	8%	0.6	0.5	0.3%	5%	-9
Cc1ccc(NC(=S)Nc2ccc(C(C)C)cc2)cc1S(=O)(=O)N1CCCCCC1	-17%	0.8	0.2	-4.0%	6%[15.4 µM]	6
CC1CCCN(C(C(=O)Nc2ccc3c(c2)OCCO3)c2ccccc2)C1 (stereo not drawn)	4%	-0.9	1.5	0.7%	1%	6
Cc1cccc(CSc2cn(CC(=O)N3CCOCC3)c3ccccc23)c1	-18%	2.0	-0.3&0.9	-0.7%&2.2%	0%	14&9
CCCC1=Nc2cc(C(=O)NCCCOCC)ccc2Sc2ccccc21	3%	1.7	1.6	-0.7%	0%[15.4 µM]	2
Cn1c(=O)c2c(ncn2CC(=O)N2CCN(c3ccc([N+](=O)[O-])cc3)CC2)n(C)c1=O	3%	2.0	-0.7	-22%	11%[15.4 µM]	-3
O=C(NCCN1CCOCC1)c1ccc(-c2ccccc2)cc1	11%	2.6	-0.5	-4.3%	18%	12
Cc1ccc(CNS(=O)(=O)c2ccc3c(c2)CCN3S(C)(=O)=O)cc1	x	x	0.0	0.3%	x	3
O=C(COc1ccccc1F)Nc1ccc2nc(SCC(=O)N3CCOCC3)sc2c1	x	x	3.9	-0.3%	x	-6
CCOC(=O)c1ccc(NC(=O)C2C3C=CC(C3)C2C(=O)O)cc1 (stereo not drawn)	5%	4.0	-0.4	-15%	-35%[inhibitor]	8
O=C1OC(COCC#Cc2ccccc2)CN1c1ccccc1 (stereo not drawn)	x	x	-0.7	-0.7%	u	-4
O=C(Nc1ccccc1)c1nsnc1C(=O)Nc1ccccc1	-2%	-8.3	1.0	-5.8%	23%	5
COc1ccc(C(=O)NC(=S)Nc2ccc(S(N)(=O)=O)cc2)cc1	7%	1.0	0.2	x	-10%[15.4 µM]	-4
COc1cc(/C=C/C(=O)OCC(=O)N(C)C2CCS(=O)(=O)C2)ccc1OC(F)F (stereo not drawn)	8%	x	0.0	u	-2%	0

Additional records follow.
SMILES	gsp antag	Menin-MLL FL inh	TRPML1 ag	ClpP mod	gsp agonist	TRPML1 blocker
CCCCN(CC)S(=O)(=O)c1ccc2c(c1)CCCN2C(C)=O	10%	-2.5	-0.1	-0.8%	12%	21
O=C(O)c1ccc(N/N=C2/CCCc3ccccc32)cc1	-7%	1.4	-0.9	-7.7%	1%	-6
Cc1cccc(NC(=O)c2ccc3nccnc3c2)n1	-1%	x	0.1	0.2%	u	9
COc1ccc(N2CCN(CC(O)COC(C)(C)C)CC2)cc1 (stereo not drawn)	2%	0.4	-0.4	-1.6%	9%	1
COc1cc(NC(=O)Cn2nc(-c3ccc(C)c(C)c3)ccc2=O)cc(OC)c1	x	x	1.0	-17%	x	-17
C/C(=C\c1ccccc1)C1NC(=O)c2c(sc3c2CCCC3)N1 (stereo not drawn)	u	6.1	0.0	-9.4%	2%	-2
Cc1nc2c(C)[n+](CC(=O)c3ccccc3)ccc2n1C	11%	1.8	-0.2	1.0%	28%	44
COc1ccc(CCN2C(=O)CN(C3CCCCCC3)C(=O)C2c2ccc(C)cc2)cc1OC (stereo not drawn)	x	x	-0.4	0.2%	x	34
Cc1sc2nc(CN3CCCC3)nc(NCc3ccncc3)c2c1C	2%	4.8	-0.3	x	5%[15.4 µM]	4
O=S(=O)(Nc1ccc2c(c1)OCCO2)c1ccc(Br)s1	-12%	3.7	0.3	0.5%	2%	-2
O=C1C(=O)N(Cc2cccnc2)C(c2ccccn2)/C1=C(/O)c1ccc(F)cc1 (stereo not drawn)	14%	4.0	0.6	0.4%	13%	-5
CCOc1c2ccc(C(=O)NCc3ccccc3OC)cc2nn1CC	-10%	-0.8	-0.8	4.1%	10%	-26
COc1ccc(CN2C[C@H]3CCCN3c3cc(Br)ccc3S2(=O)=O)cc1	7%	x	-1.2	-1.5%	x	37
COC(=O)[C@H](Cc1c[nH]c2ccccc12)NC(=O)NCc1ccc(OC)cc1	5%	-2.2	0.3	0.8%	29%	1
COc1ccc(CNC(=O)[C@@H]2CCCN2C(=O)[C@@H]2Cc3ccccc3CN2C(=O)OC(C)(C)C)cc1	u	x	-0.1	x	-73%	33
CC1(c2ccc3ccccc3c2)NC(=O)N(CC(=O)Nc2ncccc2O)C1=O (stereo not drawn)	14%	x	1.6	-0.5%	u	-5
CCC(Cc1ccccc1)NC(=O)c1csc2c1CCCCC2 (stereo not drawn)	x	x	0.6	-0.8%	x	-24
CCOc1ccc(NC(=O)CSc2nnc(Cn3cnc([N+](=O)[O-])n3)n2CC)cc1	11%	-4.5	0.5	-8.7%	-3%[15.4 µM]	0
CCOC(=O)C1CCN(C(=O)c2ccc(OCC(=O)N3CCOCC3)c(OC)c2)CC1	7%	x	0.0	x	8%[15.4 µM]	8
Cc1ccccc1CSc1n[nH]c(NS(=O)(=O)c2ccccc2)n1	-7%	-2.9	0.4	1.7%	-38%[inhibitor]	2
O=C(C1CCCN(Cc2ccc3c(c2)OCO3)C1)N1CCCC1 (stereo not drawn)	-8%	2.5	1.4	-1.6%	-22%	-2
COc1ccc(NC(=O)CSc2nc(O)cc(=O)n2C)cc1	-3%	2.4	0.0	-2.3%	34%	-5
Cc1ccsc1C(=O)OCC(=O)c1cc(C)n(C)c1C	-13%	x	0.0	-0.7%	-5%	-3
Cc1noc(C)c1CSc1cc(C)c2ccccc2n1	-21%	-1.0	0.0	-1.7%	5%	9
COc1ccc(CNC(C)CCc2ccccc2)cc1 (stereo not drawn)	6%	2.4	-0.5	x	0%	0

An excerpt of these results, as labelled records:
Structure: C/C(=C\c1ccccc1)C1NC(=O)c2c(sc3c2CCCC3)N1 (stereo not drawn)
  gsp antag: u	Menin-MLL FL inh: 6.1	TRPML1 ag: 0.0	ClpP mod: -9.4%	gsp agonist: 2%	TRPML1 blocker: -2
Structure: Cc1nc2c(C)[n+](CC(=O)c3ccccc3)ccc2n1C
  gsp antag: 11%	Menin-MLL FL inh: 1.8	TRPML1 ag: -0.2	ClpP mod: 1.0%	gsp agonist: 28%	TRPML1 blocker: 44

New compounds follow
SMILES	gsp antag	Menin-MLL FL inh	TRPML1 ag	ClpP mod	gsp agonist	TRPML1 blocker
O=C(CN1C(=O)NC2(CCCCC2)C1=O)NCc1ccc2c(c1)OCO2	-3%	2.2	-0.1	0.2%	-29%	4
COc1ccccc1-c1cc(SC)c(C#N)c(=O)o1	u	2.9	1.5	-2.0%	18%	2
Cc1nc2ccc(S(=O)(=O)NCC(=O)Nc3ccc(F)cc3)cc2s1	3%	x	1.7	-2.9%	-4%	3
Nc1ncnc2c1ncn2[C@@H]1O[C@H](CNCc2cccn2-c2nccs2)[C@@H](O)[C@H]1O	12%	x	-0.5	-1.8%	x	0
O=C(Nc1cccc(-c2csc(-c3ccccc3)n2)c1)c1cccs1	-4%	0.9	0.2	-26%	u	1
CC(C)c1cc(C(=O)NC(C)c2ccccc2)no1 (stereo not drawn)	x	x	-1.1	-0.3%	x	6
COC1=C(Nc2ccc(OC)cc2)C(=O)C(OC)=C(Nc2ccc(OC)cc2)C1=O	1%	x	0.9	-2.5%	-9%[15.4 µM]	24
CN1C(=O)c2ccc(NC(=O)c3cccc4ccccc34)cc2C1=O	-4%	-0.4	-0.5	x	23%	17
CCn1nc(NS(=O)(=O)c2ccc(NC(C)=O)cc2)c2cc3cccc(C)c3nc21	-5%	x	0.1	-1.1%	23%	4
COCCCN1CN(Cc2ccco2)CNC1=S	2%	5.3	0.3	x	3%	6
Cc1nc(C)c(-c2ccc(SCc3cccc(F)c3)nn2)s1	-9%	0.5	1.4	-1.0%	9%	14
CCCOc1ccc(N2C(=O)C3C4C=CC(CC4)C3C2=O)cc1 (stereo not drawn)	-2%	2.9	3.6	-1.3%	-13%	-3
CCC(=O)Nc1ccc(C(=O)CSc2nc3ccccc3cc2CC)cc1	-10%	12	3.1	-0.6%	-2%	-1
COc1ccccc1/C=C/C(=O)OCC(=O)Nc1ccc(Cl)cn1	5%	-0.4	3.8	x	0%[15.4 µM]	-15
O=C(Nc1ccccc1)c1ccc(F)cc1F	7%	x	2.7	1.6%	x	-19
Cc1ccc(NC(=O)C(=O)NCCN2CCN(Cc3ccc([N+](=O)[O-])cc3)CC2)cc1	-1%	3.2	0.1	-2.5%	-13%	-1
O=C(CCl)N1c2ccccc2SCC1c1ccccc1 (stereo not drawn)	-34%	5.1	2.4	1.3%	-24%	-13
COc1ccc(N(C(=O)c2ccco2)S(=O)(=O)c2cc(Cl)c(Cl)cc2Cl)cc1	-32%	1.8	-0.2	-0.5%	28%	2
CCOC(=O)c1c(C)c(-c2ccccc2)n(CC(=O)NCc2ccccc2)c1C	x	x	-0.1	0.5%	x	5
Fc1ccc2c(c1)-c1nc(-c3ccccc3)cc(-c3ccccc3)c1CO2	x	x	0.2	u	x	10

Shown with values under each structure: entries from further up
Sequence of screens: gsp antag	Menin-MLL FL inh	TRPML1 ag	ClpP mod	gsp agonist	TRPML1 blocker
COc1ccc(CNC(C)CCc2ccccc2)cc1 (stereo not drawn)
 : 6%	2.4	-0.5	x	0%	0
O=C(CN1C(=O)NC2(CCCCC2)C1=O)NCc1ccc2c(c1)OCO2
 : -3%	2.2	-0.1	0.2%	-29%	4
COc1ccccc1-c1cc(SC)c(C#N)c(=O)o1
 : u	2.9	1.5	-2.0%	18%	2
